Assay outcomes: PubChem, several laboratories
UCH37 DUB inh: human UCH37 deubiquitinating enzyme inhibition | purified proteasome/UCH37, Ub-AMC cleavage fluorescence | inhibition, % (concentration not given with the values) | 330,000 compounds, 0.33% hits | AID 588478;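 active = mean of two replicates above 20%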;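 note: 0% = compound-free wells with enzyme and 100% = wells lacking proteasome; stock transfer was 100 nL into about 20 µL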
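Signal – fluorescence, ex 355 nm, em 460 nm · System – Proteasome-bound UCH37 · Input – 0.15 nM proteasome as dispensed · Timing – 30 min preincubation with enzyme, 25 min cleavage at room temperature · Read-out basis – percent inhibition of cleavage signal versus uninhibited and no-proteasome wells · Medium – Tris-HCl pH 7.4 with ATP-MgCl2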
HNF4A DNA FP: change in binding of human HNF4 alpha to DNA; HNF4a-FITC DNA binding, fluorescence polarization, 1 h; activity change, % at 10 µM; 360,000 compounds, 0.3% hits; in the data active = activity change above about 30%, passing the limit was not always enough;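 note: controls were the assay level and a saturating level of protein; the project sought stronger binding though the title names inhibitors; some compounds called inactive have numbers as strong as hits; positive values seem to mean higher polarization but the record does not say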
ALR H2O2 inh: blocks human ALR sulfhydryl oxidase activity; P55789; purified ALR, DTT oxidation, H2O2 HRP-luminol luminescence; inhibition, % (no concentration beside the values); 290,000 compounds, 3.8% hits; AID 485317;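 active = mean and each replicate at 75% or more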;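 note: stock transfer was 7.5 nL into about 7.5 µL; 0% = neutral wells and 100% = wells with inactivated enzyme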
Target sequence (P55789 whole entry, looked up): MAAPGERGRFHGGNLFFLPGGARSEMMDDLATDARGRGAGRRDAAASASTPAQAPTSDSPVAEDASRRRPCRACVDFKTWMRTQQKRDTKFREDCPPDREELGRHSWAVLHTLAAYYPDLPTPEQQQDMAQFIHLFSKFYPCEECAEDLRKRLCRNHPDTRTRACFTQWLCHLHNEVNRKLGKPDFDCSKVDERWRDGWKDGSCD
FGF22 binding: shifts melting point of recombinant human FGF22. Q9HCT0. recombinant FGF22 thermal shift, SYPRO orange fluorescence; percent of sucrose octasulfate shift, DMSO zero. calls only at 9.99 µM. 340,000 compounds, 1.5% hits. AID 651658;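 active = melting point raised past a set limit in the mean and every replicate; three in four hits are not shown here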
Target sequence (Q9HCT0 whole entry, looked up): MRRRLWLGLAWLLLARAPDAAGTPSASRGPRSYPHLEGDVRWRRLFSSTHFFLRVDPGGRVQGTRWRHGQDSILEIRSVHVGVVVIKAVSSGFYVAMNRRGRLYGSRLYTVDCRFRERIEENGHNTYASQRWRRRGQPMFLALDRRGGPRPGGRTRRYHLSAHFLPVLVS
LANA-H2B inh: blocks KSHV LANA binding to histone H2A/H2B | Q9QR71 | cell-free LANA-H2A/H2B peptide, fluorescence polarization | inhibition, % (concentration not given with the values) | 320,000 compounds, 0.6% hits; in the data active = inhibition mostly above about 10%, no sharp cut-off; inactive = mostly below about 6.7%;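 note: stock transfer was 7.5 nL into about 10 µL; 0% = median of vehicle wells and 100% = median of positive control wells; one replicate is shown; the record names a cut of 25% in any replicate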
E coli growth: E. coli growth inhibition; Escherichia coli growth, OD600, 23 h; stronger effect = lower value; OD600 absorbance (test concentration not listed); 330,000 compounds, 0.21% hits; AID 1053175;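 active = OD600 absorbance below the run mean of sample wells minus 3.6 SD, in any replicate, cut at about 0.56 in these data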;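 note: stock transfer was 300 nL into about 60 µL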
Beta2AR agonist: human beta-2 adrenergic receptor agonism by FAP | P07550 | Am2.2-beta2AR cells, FAP receptor internalization, flow cytometry; reference of the scale not given here | response, % (concentration not given with the values) | 340,000 compounds, 0.43% hits;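 active = response above a set limit, near 3 SD of response in nonfluorescent compounds, cut at about 42% in these data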;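 note: stock transfer was 100 nL into about 11 µL; a reference agonist was the positive control; negative values mostly stem from fluorescent compounds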
Target sequence (P07550 whole entry, looked up): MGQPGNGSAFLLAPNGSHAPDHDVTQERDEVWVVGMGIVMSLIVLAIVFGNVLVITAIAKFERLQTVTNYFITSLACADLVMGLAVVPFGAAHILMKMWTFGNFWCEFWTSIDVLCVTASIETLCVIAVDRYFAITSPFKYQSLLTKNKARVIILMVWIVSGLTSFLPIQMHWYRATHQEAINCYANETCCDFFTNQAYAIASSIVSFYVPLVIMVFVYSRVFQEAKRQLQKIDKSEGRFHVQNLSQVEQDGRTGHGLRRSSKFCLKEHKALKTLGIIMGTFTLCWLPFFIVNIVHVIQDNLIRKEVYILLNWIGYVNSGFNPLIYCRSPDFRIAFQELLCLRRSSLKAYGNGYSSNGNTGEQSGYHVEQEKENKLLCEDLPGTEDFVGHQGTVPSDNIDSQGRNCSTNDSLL
* = called active by the depositor; i = inactive; / = not tested or not shown.

molecule	UCH37 DUB inh	HNF4A DNA FP	ALR H2O2 inh	FGF22 binding	LANA-H2B inh	E coli growth	Beta2AR agonist
CCCCC1=NN2CCS(=O)(=O)N=C2S1	-0.7	-0.9	0.8	i	2.0	0.657	-5.3
CCCC(=O)NCCc1cc2c(C)ccc(C)c2[nH]c1=O	-3.7	-3.1	2.4	i	-0.1	0.711	-4.6
COc1ccc(N2CCN(C3CCCN(Cc4cccc(C(C)=O)c4)C3)CC2)cc1 (centres undefined)	-0.2	2.0	/	i	-1.9	0.714	3.2
Cc1nn(CC(=O)NCCCc2ccccc2)c(=O)c2cc3occc3n12	3.7	0.4	3.0	i	-1.3	0.718	-14.4
COc1cccc(N(C(=O)c2cnccn2)C(C(=O)NC2CCCCC2)c2ccc(Cl)cc2)c1 (centres undefined)	3.0	-3.9	-3.3	/	2.1	0.68	7.7
COC(=O)c1ccc(CSCC(=O)Nc2cc(OC)cc(OC)c2)o1	5.8	0.9	/	/	3.4	0.712	4.3
COC(=O)C(C(=O)OC)C(CC(=O)c1ccc(C)cc1)c1cc(OC)c(OC)c(OC)c1 (centres undefined)	3.0	0.3	97.4*	i	1.1	0.673	1.1
CCN(CC)Cc1c(O)ccc2occ(C(=O)c3ccccc3)c12	-0.1	0.5	10.3	i	-2.3	0.701	-7.6
Cc1cccc(-n2c(-c3ccc(Br)o3)n[nH]c2=S)c1	5.9	-1.2	60.6	i	6.0	0.633	3.4
CCN(CC)CCNC(=O)c1ccc(NC(=O)c2ccc3c(c2)CCC3)cc1	0.4	2.9	0.6	i	1.1	0.693	9.2
Cc1nnc(SCCn2c(N3CCC(Cc4ccccc4)CC3)nc3c2c(=O)[nH]c(=O)n3C)s1	4.8	/	/	/	-1.7	0.671	/
Cc1cccc2c1-c1sc(C(=O)Nc3ccccc3N3CCN(C)CC3)cc1CO2	-21.9	8.3	/	i	1.3	0.782	24.0
COc1ccc(-c2noc(CN(C)C(=O)c3ccoc3C)n2)cc1OC	2.7	-2.2	/	i	-2.4	0.68	-1.7
CC(OC(=O)CCSc1ccccc1)C(=O)Nc1ccc(S(N)(=O)=O)cc1 (centres undefined)	3.2	-0.1	/	i	/	0.694	-2.8
CN(C(=O)c1cccc(Cl)c1)C1CCCN(Cc2ccccc2F)C1 (centres undefined)	2.5	-2.4	/	i	-3.9	0.666	4.9
O=C(N/N=C/c1ccc2c(c1)OCO2)c1cccs1	/	2.2	-3.0	i	-1.6	/	1.1
CC(OC(=O)c1ccco1)C(=O)NCc1ccc2c(c1)OCO2 (centres undefined)	/	1.9	1.6	i	2.8	/	10.7
CCC(Sc1ncnc2c1c(-c1ccccc1)cn2-c1ccc(OC)cc1)C(=O)OC (centres undefined)	-5.4	1.0	0.5	i	0.9	0.727	8.0
Cc1ccc(Nc2nc3ccc(Cl)cc3n3cnnc23)cc1F	-54.5	3.5	-2.9	i	2.2	0.639	-4.6
COc1ccc(-c2nc(C#N)c(NC(C)c3ccccc3)o2)cc1OC (centres undefined)	-13.9	3.8	/	/	0.5	0.796	18.6

By substructure: the compounds so far with fluorine (2)
molecule	UCH37 DUB inh	HNF4A DNA FP	ALR H2O2 inh	FGF22 binding	LANA-H2B inh	E coli growth	Beta2AR agonist
CN(C(=O)c1cccc(Cl)c1)C1CCCN(Cc2ccccc2F)C1 (centres undefined)	2.5	-2.4	/	i	-3.9	0.666	4.9
Cc1ccc(Nc2nc3ccc(Cl)cc3n3cnnc23)cc1F	-54.5	3.5	-2.9	i	2.2	0.639	-4.6

Continuation:
molecule	UCH37 DUB inh	HNF4A DNA FP	ALR H2O2 inh	FGF22 binding	LANA-H2B inh	E coli growth	Beta2AR agonist
CCN(C(=O)CSc1nnnn1-c1ccccc1)C1CCS(=O)(=O)C1 (centres undefined)	5.6	-1.5	-3.8	i	-2.1	0.728	4.2
Cc1onc(-c2c(Cl)cccc2Cl)c1C(N)=S	0.2	2.4	-1.1	/	0.8	0.714	0.4
O=C(NCc1ccccn1)Nc1ccc(Cl)cc1	3.4	-0.2	-24.3	i	5.1	0.646	-4.6
COc1cc(/C=C/c2nc3ccccc3c(=O)[nH]2)cc(Cl)c1O	6.7	40.3*	1.9	i	2.2	0.704	0.6
O=Cc1c(NCc2ccc(F)cc2)c2ccccc2[nH]c1=O	2.4	-0.8	/	i	-2.4	0.678	3.1
N/C(=N\OC(=O)C(c1ccccc1)c1ccccc1)c1ccncc1	1.6	2.1	-4.9	i	-0.7	0.647	-3.0
Cc1ccc(CNC(=O)C2CC(c3ccccc3C(F)(F)F)=NO2)o1 (centres undefined)	4.0	-2.4	/	i	-3.3	0.638	1.9
CCN1C(=O)N(C)C2(c3ccccc3)N(C)C(=O)N(C)C12c1ccccc1 (centres undefined)	1.3	0.5	4.8	/	-0.4	0.742	2.7
O=C(NCc1ccc(Cl)cc1)c1cc(=O)nc2sc(-c3ccccc3)nn12	0.2	1.6	-1.4	i	-7.5	0.698	-16.4
Nc1nonc1C(=O)N/N=C/c1ccc(-c2ccc(Cl)c(C(=O)O)c2)o1	/	-4.3	-3.0	i	-2.7	/	-0.3
O=C(Nc1ccc(OC(F)(F)F)cc1)c1ccc(-n2cncn2)nc1	-0.3	7.0	-7.0	i	-5.7	0.73	1.7
COc1cccc(OC)c1CNC(=O)CCSCc1ccccc1F	2.2	-0.9	-25.2	i	-0.4	0.721	4.5
CCCCn1c(N)c(N(CCC(C)C)C(=O)c2ccccc2C)c(=O)[nH]c1=O	4.6	1.8	-3.8	i	3.6	0.657	-1.2
COc1ccccc1NC(=O)COc1ccc(Br)cc1CO	3.8	0.6	-11.5	/	-3.2	0.699	-15.4
O=C(OCC(=O)N1CCN(c2ccccc2)CC1)c1cnc(Cl)c(Cl)c1	-0.3	/	14.7	i	3.8	0.688	/
O=C(Nc1ccc2oc(-c3cccnc3)nc2c1)c1cccnc1	-19.1	-1.8	-8.1	/	1.7	0.736	-3.3
CCOc1ccc(-n2c(=S)sc3c(=O)[nH]c(SCC(=O)NCc4ccco4)nc32)cc1	7.7	-5.2	16.8	/	0.4	0.667	-0.1
CC(C)NC(=S)N1CCn2c(nc3ccccc32)C1	-1.8	0.7	-2.2	i	1.2	/	-7.3
O=C1OCCN/C1=C\C(=O)c1ccc(Cl)cc1	9.4	-0.2	-0.2	i	-3.5	0.67	0.1
O=C(O)c1cc(-c2ccc(Cl)c(Cl)c2)n(-c2ccc(F)cc2)n1	2.1	1.3	5.0	i	2.0	0.66	10.6

Continued.
molecule	UCH37 DUB inh	HNF4A DNA FP	ALR H2O2 inh	FGF22 binding	LANA-H2B inh	E coli growth	Beta2AR agonist
CC(=O)c1ccccc1NC(=O)COC(=O)/C=C/c1ccc(OC(F)F)cc1	-0.3	4.5	-6.4	i	7.7	0.676	0.6
COc1cccc(OC)c1C(=O)NC(=S)Nc1ccc2oc(=O)ccc2c1	3.9	3.1	/	i	1.0	0.69	-3.2
CC(NCc1ccccc1O)C12CC3CC(CC(C3)C1)C2 (centres undefined)	2.1	0.2	-4.7	i	-6.4	0.675	2.5
COc1ccc(-n2c(CN3CCN(Cc4ccccc4)CC3)nc3ccc([N+](=O)[O-])cc3c2=O)c(OC)c1	3.1	0.4	/	i	-1.3	0.662	1.2
Cn1c(-c2ccc(Cl)cc2)ccc(C#N)c1=O	-16.2	1.1	-1.2	/	-0.3	0.733	6.8
CCN(CC)C(=O)CSc1nsc(SCC(=O)N(CC)CC)c1C#N	-0.1	-1.3	-2.2	/	0.1	0.737	1.5
CCN(CC)S(=O)(=O)c1ccc2oc(C(=O)NCCCN3CCOCC3)c(C)c2c1	5.2	0.6	0.3	/	5.8	0.659	1.8
Cc1cc(C)nc(N2CCCC(CCC(=O)NCc3ccc(F)c(F)c3)C2)n1 (centres undefined)	-6.7	3.4	-3.3	i	0.1	0.708	-5.0
CC1CN(C(=O)c2ccc([N+](=O)[O-])s2)CC(C)O1 (centres undefined)	5.9	-0.1	-91.3	i	1.6	0.636	3.2
Cc1ccc(SCCNC(=O)/C=C/c2cccc([N+](=O)[O-])c2)cc1	0.5	3.2	/	i	1.7	0.638	2.5
COc1ccc(N2C(=O)CC(N(C)CCc3ccc(OC)c(OC)c3)C2=O)cc1 (centres undefined)	3.9	-1.3	7.7	i	-0.2	0.669	3.7
O=C(CN(C(=O)CNC(=O)c1cccs1)c1ccccc1)NC1CCCCC1	1.0	-2.4	/	i	-0.5	0.691	-23.0
COc1ccc(S(=O)(=O)N2CCC(C(=O)NCCC3=CCCCC3)CC2)cc1C	22.1*	-0.7	2.8	i	34.2*	0.703	-1.1
CCN(CC)CCCNC(=O)c1c(O)c2cc(F)cc3c2n(c1=O)C(C)CC3 (centres undefined)	-28.9	0.2	/	i	-2.2	0.648	4.1
C=CCSC1=N/C(=C\c2sccc2C)C(=O)S1	4.2	-1.5	53.3	/	0.4	0.71	5.1
CC(=O)OCC(OC(C)=O)C(OC(C)=O)C(OC(C)=O)C(=O)Nc1ccc(C)cc1 (centres undefined)	-0.1	-3.9	-8.6	/	-8.2	0.625	8.6
COc1ccc(/C=N/NC(=O)Cc2ccc(Cl)cc2)cc1OC	/	-4.0	0.4	i	-1.1	/	-12.9
Cc1cccc(OCc2nnc(SCC(=O)N(C)C3CCCCC3)o2)c1	-0.6	-1.6	/	i	/	0.649	0.6
CCCNc1nc2c(c(=O)n(C)c(=O)n2C)n1Cc1cccc(C)c1	-0.5	-0.7	8.2	i	-3.4	0.7	-5.0
O=C(CCCCn1c(=O)c2ccccc2n(Cc2ccccc2)c1=O)NC1CCN(Cc2ccccc2)CC1	1.8	-1.6	-3.1	i	-4.8	0.683	11.6

Following part:
molecule	UCH37 DUB inh	HNF4A DNA FP	ALR H2O2 inh	FGF22 binding	LANA-H2B inh	E coli growth	Beta2AR agonist
COc1ccc(N2C(=O)C3CCCN3C2c2ccccc2)cc1 (centres undefined)	-0.7	3.9	-13.1	i	0.1	0.706	1.2
COc1ccc(OC)c(NC(=O)C(C#N)=Cc2ccco2)c1	6.4	7.0	/	i	/	0.705	-6.6
O=C(Nc1ccccn1)c1ccc2c(c1)OCO2	0.2	-1.8	-2.5	i	-0.9	0.677	-5.2
COc1ccc2cc(C(=O)NCC(=O)O)sc(=O)c2c1OC	0.4	-2.8	/	/	/	0.681	-3.9
C=CCOc1ccc(/C(O)=C2/C(=O)C(=O)N(CCN3CCOCC3)C2c2ccc(C)cc2)cc1 (centres undefined)	12.2	4.5	/	/	0.7	0.721	-1.8
CN1CCN(C(CNS(=O)(=O)c2ccc(Cl)cc2)c2cccnc2)CC1 (centres undefined)	1.5	4.0	-2.5	/	-1.3	0.663	-7.7
COc1cccc(-c2nc(CCl)cs2)c1	5.6	-2.6	99.1*	i	-0.7	0.714	1.0
COc1cccc2c(=O)n(CC(=O)NC3CCCCC3)ccc12	-3.1	4.5	-3.2	i	1.0	0.722	-20.8
COc1ccc(N2CCN(C(CNC(=O)c3cccc(Cl)c3)c3cccnc3)CC2)cc1 (centres undefined)	0.4	-1.4	47.2	/	-2.2	0.742	-6.2
CCCC(C)C(=O)Nc1cccc(NC(C)=O)c1 (centres undefined)	4.3	-0.8	-8.1	/	-2.0	0.712	-2.1
Cc1cnn(C(=O)Cn2nc(C(F)F)c(Br)c2C)c1	5.1	5.8	/	i	/	0.693	-0.4
O=C(Nc1c(C(=O)N2CCOCC2)cnn1-c1ccccc1)c1ccc(F)cc1	1.7	0.7	-0.8	i	0.2	0.665	0.6
CCC(=O)c1ccc(OCC(=O)OCC(=O)NCC2CCCCC2)cc1	1.8	-2.4	0.2	i	0.7	0.675	-5.5
COc1ccccc1C(=O)NCCC(=O)N1CCN(S(=O)(=O)c2cccc(Cl)c2)CC1	2.2	-0.6	-7.3	i	1.6	0.73	2.8
O=C(O)C(Cc1cn[nH]n1)=NO	0.0	-2.0	/	/	2.4	0.702	-5.5
Cc1c(C(=O)C(=O)N2CC=C(c3ccccc3)CC2)c2ccccc2n1C	4.2	0.2	-25.2	/	-1.9	0.67	-63.2

Some of the compounds tested, so the mix of outcomes need not match the whole.
